Source: PubChem (Southern Research Institute)
Mtb growth: Mycobacterium tuberculosis H37Rv growth inhibition, putative kinase inhibitor library, confirmatory dose response (AID 2842) | M. tuberculosis H37Rv growth inhibition; higher % means a stronger effect; some inactives read as strong as hits | inhibition, % at 10 µg/mL, or IC90 in µg/mL where a hit was titrated | actives 5.2% (n = 24,000);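 active = confirmed in a dose series; about a fifth of its hits are not listed in these tables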;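 also: bacteria incubated one week before Alamar blue readout; 0% = bacteria only wells and 100% = bacteria with high antibiotic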
Starred values were filed as active, the others as inactive.

SMILES	Mtb growth
CNC(=O)c1ccsc1NC(=O)CN1C(=O)CCC1=O	-6.1%
NC(=O)N/N=C\c1cn(-c2ccccc2)nc1-c1ccc2ccccc2c1	21.5%
CCSc1nc2c(c(=O)[nH]1)C(c1cccc(Br)c1)C(C(=O)OC(C)C)=C(C)N2 (stereo not drawn)	83.6%
O=C(Nc1nc(-c2nc3ccccc3s2)cs1)c1cc(=O)c2ccccc2o1	-10.1%
CCOc1cc(C(=O)Nc2sc3c(c2C#N)CCN(C(C)C)C3)cc(OCC)c1OCC	17.9%
Cc1cc(=O)[nH]c(N/N=C/C=C/c2ccccc2)n1	73.7%
Cc1ccc(/C=C(\C#N)C(=O)Nc2ccccc2O)o1	2.0%
O=c1cc(Nc2ccc3c(c2)OCO3)[nH]c(=O)n1-c1ccc(Cl)cc1	2.9%
O=C(Nc1nc(-c2ccc3c(c2)CCCC3)cs1)c1ccc2c(c1)OCCO2	14.5µg/mL*
COc1ccc(Cn2cc3c(-c4ccc(OC)cc4)nnc-3c3cc(OC)ccc32)cc1	11.4%
O=C(Nc1sc2nc(=O)c(Cc3ccccc3)nn2c1-c1cccs1)c1ccc(Cl)cc1	-2.2%
CCOCCn1c(SCc2ccc(Cl)cc2)nc2c1c(=O)[nH]c(=O)n2C	6.3%
NC(=O)c1c(NC(=O)c2ccc(Cl)cc2)sc2c1CCCC2	23.4%
CCOC(=O)c1nn(-c2ccc(C(C)C)cc2)c(=O)c2c(NC(=O)c3ccc(S(=O)(=O)N4CCCC4)cc3)scc12	-6.8%
O=C(NCc1ccccc1)C(=O)Nc1cc2c3c(c1)CC(=O)N3CCC2	6.2%
Cc1cc(NC(=O)Cn2cnc3c(nnn3-c3ccc(C)c(C)c3)c2=O)no1	20.9%
COc1cccc(N2CC(NS(=O)(=O)N(C)C)CC2=O)c1 (stereo not drawn)	0.8%
COc1cc(C2NC(=O)NC(O)(C(F)(F)F)C2C(=O)c2cccs2)ccc1O (stereo not drawn)	-2.0%
Cc1cc(C)cc(NC(=O)CSc2ccc3nnc(-c4ccc(F)cc4)n3n2)c1	-5.2%
O=C(Nc1c(C(=O)Nc2ccc(OC(F)(F)F)cc2)oc2ccccc12)c1cccc(Br)c1	11.1%
COC(=O)C1CCN(C(c2cccc(F)c2)c2sc3ncnn3c2O)CC1 (stereo not drawn)	-8.6%
Cc1c(Cl)cccc1NC(=O)c1sc2nc3c(c(-c4cccs4)c2c1N)CCC3	61.1%
O=C(CCn1c(=S)[nH]c2ccccc2c1=O)NCCc1ccccc1	-0.6%
O=c1cc(Cc2nnc(SCc3ccccc3)n2-c2ccc(Cl)cc2)[nH]c(=O)[nH]1	-1.3%
CSc1ccc(-c2nnc(NC(=O)c3ccc([N+](=O)[O-])s3)o2)cc1	-4.2%
Cc1ccc(Cl)cc1Nc1nc(=O)[nH]nc1C	-6.8%
CCOCCn1c(SCc2ccccc2Cl)nc2c1c(=O)[nH]c(=O)n2C	9.1%
COc1ccc(C(=O)Nc2nnc(-c3ccc(Br)cc3)s2)cc1	7.2%
O=C(Cn1cnc2c(cnn2-c2ccc(Cl)cc2)c1=O)NCCc1ccccc1	11.1%
Cc1ccc(S(=O)(=O)N(C)CCCC(=O)Nc2ccncc2)cc1	-4.6%
CC(=O)Nc1cccc(NC(=O)CSc2ccnc3c2c(=O)n(C)c(=O)n3C)c1	-14.5%
CS(=O)(=O)c1ccc(-c2nnc(NC(=O)c3ccc4ncsc4c3)o2)cc1	1.2%
O=C(COc1ccccc1)N1CCN(c2ncnc3c2nnn3Cc2ccccc2)CC1	11.1%
NS(=O)(=O)c1ccc(-n2ncc3c(=O)[nH]c(SCC(=O)N4N=C(c5cccs5)CC4c4ccc(F)cc4)nc32)cc1 (stereo not drawn)	48.1%
CC(=O)N1CCc2c(sc(NC(=O)c3ccc(Cl)cc3Cl)c2C(N)=O)C1	8.8%
COc1ccccc1NCN1C(=O)C(=O)c2ccccc21	-2.5%

Compounds listed so far that have bromine:
SMILES	Mtb growth
CCSc1nc2c(c(=O)[nH]1)C(c1cccc(Br)c1)C(C(=O)OC(C)C)=C(C)N2 (stereo not drawn)	83.6%
O=C(Nc1c(C(=O)Nc2ccc(OC(F)(F)F)cc2)oc2ccccc12)c1cccc(Br)c1	11.1%
COc1ccc(C(=O)Nc2nnc(-c3ccc(Br)cc3)s2)cc1	7.2%

Arranged by count of non-hydrogen atoms (lowest first): 5 of the compounds above.
SMILES	Mtb growth
Cc1ccc(Cl)cc1Nc1nc(=O)[nH]nc1C	-6.8%
COc1ccccc1NCN1C(=O)C(=O)c2ccccc21	-2.5%
CSc1ccc(-c2nnc(NC(=O)c3ccc([N+](=O)[O-])s3)o2)cc1	-4.2%
CCOCCn1c(SCc2ccccc2Cl)nc2c1c(=O)[nH]c(=O)n2C	9.1%
NS(=O)(=O)c1ccc(-n2ncc3c(=O)[nH]c(SCC(=O)N4N=C(c5cccs5)CC4c4ccc(F)cc4)nc32)cc1 (stereo not drawn)	48.1%

The listing continues:
SMILES	Mtb growth
CC(C)N1CCc2c(sc(NC(=O)c3ccc(F)cc3)c2C(N)=O)C1	1.3%
O=C(NNc1nc2c(F)cccc2s1)c1cc(-c2cccs2)nc2ccccc12	3.6%
Cn1c(=O)c2c(SCC(=O)Nc3ccc4c(c3)OCCO4)nc(-c3ccc([N+](=O)[O-])cc3)nc2n(C)c1=O	-7.0%
CCN(C(=O)c1ccc(S(=O)(=O)N(C)C)cc1)C1CCS(=O)(=O)C1 (stereo not drawn)	-7.2%
CS(=O)(=O)c1cccc(-c2nnc(NC(=O)CSc3ccc(Cl)cc3)o2)c1	1.7%
CCCCSc1nc2c(c(=O)[nH]1)C(c1cccs1)C1=C(CC(C)(C)CC1=O)N2 (stereo not drawn)	12.1%
CCOc1ccc(NC(=O)CSc2nc(N)c(NC(=O)c3ccco3)c(=O)[nH]2)cc1	83.4%
COc1ccccc1-c1nnc(NC(=O)Cc2ccc(SC)cc2)o1	52.6µg/mL*
CCCn1c2c(c(=O)[nH]c1=O)C(c1ccc(Cl)cc1)C1=C(COC1=O)N2 (stereo not drawn)	-1.3%
Cc1ccccc1NC(=O)c1c[nH]c(=O)n(-c2ccc(Cl)cc2)c1=O	5.5%
CCCC(=O)NCCc1cc2ccc(C)c(C)c2[nH]c1=O	-5.7%
COc1ccc(-c2nc(C(N)=O)c3[nH]c(=O)n(-c4ccccc4F)c3n2)cc1	0.6%
CCOc1ccc(C(=O)N2CC(=O)Nc3ccc(Br)cc3C2c2ccccc2)cc1 (stereo not drawn)	25.3µg/mL*
O=C(CSc1ncnc2c1nnn2Cc1ccccc1F)NCc1ccc2c(c1)OCO2	-0.9%
COc1ccc(C2C=C(c3ccco3)Nc3ncnn32)cc1 (stereo not drawn)	-3.8%
CCOc1cc(C(=O)NCCc2cc3c(C)ccc(C)c3[nH]c2=O)cc(OCC)c1OCC	4.0%
COc1cc(C(=O)Nc2nnc(-c3cccc(C)c3)s2)cc(OC)c1OC	7.0%
O=C(CN1C(=O)c2ccccc2S1(=O)=O)Nc1cccc([N+](=O)[O-])c1	-5.2%
O=C(Cn1cnc2c(cnn2-c2ccc(Cl)cc2)c1=O)Nc1cccc(F)c1	1.4%
CCOc1ccc(-c2nnc3ccc(SC(C)C(=O)OC)nn23)cc1 (stereo not drawn)	1.7%
Cc1ccc(-c2nnc(NC(=O)c3ccc(S(=O)(=O)N(C)C)cc3)o2)c(C)c1	41.1µg/mL*
COc1cccc(-c2ccc3nnc(SCC(=O)c4cccc([N+](=O)[O-])c4)n3n2)c1	-1.5%
Cc1ccc(-c2nnc(NC(=O)c3ccc(Br)s3)o2)c(C)c1	2.17µg/mL*
Cc1nnc2c3ccccc3c(-c3ccccc3)nn12	-9.6%
CCOC(=O)c1nn(-c2ccc(C)cc2)c(=O)c2c(NC(=O)CCCCl)scc12	5.6%
CCOc1ccccc1NC(=O)CSc1nnc2[nH]c(=O)c(C)c(C)n12	1.4%
COc1ccc(C(=O)CSc2nc(N)c(NC(=O)c3ccccc3)c(=O)[nH]2)cc1	-9.8%
CCOc1ccc(S(=O)(=O)Nc2cc(Cl)c(O)c3ccccc23)cc1	-1.2%
CCCCN(C)S(=O)(=O)c1ccc(C(=O)Nc2ccc3ccccc3c2)cc1	61.5%
NC(=O)c1nc(-c2ccco2)nc2c1[nH]c(=O)n2-c1ccc(Cl)c(Cl)c1	-5.2%
CC(C)Oc1ccc(NC(=O)Nc2cccc(Cl)c2)cc1	-5.4%
Cc1c(C(N)=O)sc2ncn(CC(=O)Nc3ccccc3)c(=O)c12	-1.7%
CCN(CC)C(=O)CSc1ccccc1[N+](=O)[O-]	-4.7%
CC(C)OCCCn1c(N)c(C(=O)OCC2CCCO2)c2nc3ccccc3nc21 (stereo not drawn)	-16.2%
O=C(Nc1ccccc1)c1cc2ccccc2c(=O)o1	-2.3%
Cc1ccc(C(=O)Oc2cc(C)[nH]c(=O)c2[N+](=O)[O-])cc1	-5.2%
CCOc1ccc2c(c1)c1nnc(-c3ccc(F)cc3)c-1cn2Cc1ccccc1OC	14.2%
COc1ccc(-c2nnc3c4ccccc4n(Cc4ccccc4F)cc2-3)cc1	23.0%
CCOCCCNc1ncnc2c1cnn2-c1ccc(Cl)c(Cl)c1	7.3%
O=C(Nc1nc(-c2ccc(Cl)cc2)cs1)c1ccc(S(=O)(=O)N2CCCCCC2)cc1	4.2%
CCOc1ccc2nc(NC(=O)CC3CCS(=O)(=O)C3)sc2c1 (stereo not drawn)	1.7%
Cc1ccc(S(=O)(=O)n2nc(OC(=O)c3ccc(Cl)cc3Cl)cc2N)cc1	-5.2%
CCOC(=O)c1nn(-c2ccc(F)cc2)c(=O)c2c(NC(=O)COc3ccccc3)scc12	-15.4%
O=[N+]([O-])c1cccc(NC(c2ccco2)c2ccc3cccnc3c2O)c1 (stereo not drawn)	14.9%
NS(=O)(=O)c1ccc(NC(=O)COc2ccccc2Br)cc1	-19.2%
Cn1c(=O)[nH]c(=O)c2c1nc(SCC(O)CO)n2CC(N)=O (stereo not drawn)	12.6%
Cc1nc2sc(C(c3ccccc3F)N3CCOCC3)c(O)n2n1 (stereo not drawn)	-5.5%
COc1ccc2cc(CCNC(=O)C3c4ccccc4Oc4ccccc43)c(=O)[nH]c2c1	-2.9%
CCOC(=O)c1nn(-c2ccc(C(F)(F)F)cc2)c(=O)c2c(NC(=O)Cc3cccc(C)c3)scc12	-5.9%
Cc1nnc(SCCn2c(N3CCCC(C)C3)nc3c2c(=O)n(C)c(=O)n3C)s1 (stereo not drawn)	1.0%
CC1CCc2c(sc(NC(=O)c3ccc(O)cc3)c2C(N)=O)C1 (stereo not drawn)	77.5%
CCOC(=O)N1CCc2c(sc(NC(=O)CCOc3ccccc3)c2C(N)=O)C1	12.4µg/mL*
COc1ccc(OC)c2[nH]c(=O)c(CCNC(=O)c3cccc(Cl)c3)cc12	-0.5%
CCCCc1ccc2nc(Nc3nc4ccc(F)cc4s3)sc2c1	6.2%
Cc1ccc(C(=O)CSc2nccn(-c3ccc(F)cc3)c2=O)cc1	-7.5%
CC(=O)c1ccc(C(=O)Nc2sc3c(c2C(N)=O)CCN(Cc2ccccc2)C3)cc1	3.3%
Cn1c(=O)c2c(nc(N3CCN(c4cccc(Cl)c4)CC3)n2CCSc2nnnn2-c2ccccc2)n(C)c1=O	9.8%
O=C(Cn1cnc2c(cnn2-c2ccc(F)cc2)c1=O)NC1CCCCC1	-10.6%
CC1C(=O)N2CCCc3cc(S(=O)(=O)Nc4cccc(Cl)c4Cl)cc1c32 (stereo not drawn)	-7.8%
Cc1ccc(NC2C=CS(=O)(=O)C2)cc1C (stereo not drawn)	55.1%
Carrying on:
SMILES	Mtb growth
Cc1ccc([N+](=O)[O-])cc1NC(=O)CCN1C(=O)c2ccccc2S1(=O)=O	11.6%
COc1ccc2c(c1)c(=O)c(C(=O)c1ccc(Cl)cc1)cn2CC(=O)Nc1ccc2c(c1)OCO2	-1.8%
CN1C(=O)c2ccc(NC(=O)c3cc(=O)c4ccccc4o3)cc2C1=O	2.6%
CCOc1ccc(/C=C(\C#N)C(=O)Nc2nnc(CC)s2)cc1OC	-11.0%
CCN1CCN(CC(=O)Nc2cccc(C)c2C)C(=O)C1=O	-4.7%
O=C(Nn1c(O)c(C=C2N=c3ccccc3=N2)sc1=S)c1ccc(F)cc1	-10.7%
COc1ccc(-n2c(=O)[nH]cc(C(=O)Nc3ccc4c(c3)OCO4)c2=O)cc1OC	1.6%
COCC(=O)N1N=C(c2ccc(NS(C)(=O)=O)cc2)CC1c1ccc(F)cc1 (stereo not drawn)	3.0%
Cn1c(NCC(=O)O)nc2c1c(=O)[nH]c(=O)n2C	11.7%
Cc1ccc(C)c(NC(=O)CSc2ccnc3c2c(=O)n(C)c(=O)n3C)c1	0.0%
CCOC(=O)/C(C#N)=C\c1cn(CCC(=O)O)nc1-c1ccc(-c2ccccc2)cc1	-13.2%
CCNc1nc(NCC)nc(Sc2ccc([N+](=O)[O-])cc2[N+](=O)[O-])n1	-3.2%

Looked up by compound from the entries so far:
SMILES	Mtb growth
Cc1ccccc1NC(=O)c1c[nH]c(=O)n(-c2ccc(Cl)cc2)c1=O	5.5%
O=C(CSc1ncnc2c1nnn2Cc1ccccc1F)NCc1ccc2c(c1)OCO2	-0.9%
Cc1ccc(/C=C(\C#N)C(=O)Nc2ccccc2O)o1	2.0%
COc1ccc(-n2c(=O)[nH]cc(C(=O)Nc3ccc4c(c3)OCO4)c2=O)cc1OC	1.6%
O=C(COc1ccccc1)N1CCN(c2ncnc3c2nnn3Cc2ccccc2)CC1	11.1%

(next part)
SMILES	Mtb growth
O=C(CSc1nnc2sc3ccccc3n12)Nc1ccccc1C(F)(F)F	10.7%
CCOC(=O)c1nn(-c2ccc(C(F)(F)F)cc2)c(=O)c2c(NC(=O)c3ccc4c(c3)OCO4)scc12	14.5%
CCCC(=O)N(Cc1ccccc1)c1nnc(C23CC4CC(CC(C4)C2)C3)s1	0.7%
CCOc1ccc(-n2c(SCC(=O)N3CCN(c4ccccc4)CC3)nc3c([nH]c4ccccc43)c2=O)cc1	-5.2%
CSc1ncc(C(=O)Nc2ccc(C)cc2)c(=O)n1C	-7.9%
O=C(Nc1nc2c(cc3c4c(cccc42)CC3)s1)c1ccccc1I	6.5%

Not all compounds are listed (hit frequency here may not be typical).
